# RanGTP-Impb inh: inhibitors of RanGTP-importin-beta interaction, primary screen, biochemical, FRET, CFP-Ran, YFP-importin-beta, homogeneous | 300,000 compounds, 1.1% hits | inhibition, % (test concentration not listed) | AID 2216, 2009 | cell-free CFP-Ran/YFP-importin-beta FRET ratio | Ran GTPase (GTP-bound) - importin-beta complex;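 active means most replicates above 15%; inconclusive means exactly half above 15%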;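 further: 0% = DMSO wells and 100% = Ran loaded with GDP instead of GTP; wells of about 40 µL received 100 nL stock; the first replicate is given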
# T cruzi inh: inhibitors of intracellular T. cruzi growth, primary screen, luminescence, NIH3T3 host cells; T. cruzi beta-gal in NIH3T3, 90 h; inhibition, % (no concentration beside the values); 300,000 compounds, 1.4% hits;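 active means mean inhibition across valid replicates above about 55%, limit read from the data; inconclusive means mean below that limit but half or more replicates reach it; inactive means mean below it, under half of replicates reach it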;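 further: signal also drops with host cell toxicity which is not excluded here; 0% = plate median of DMSO wells and 100% = zero luminescence signal; higher percent means less beta-gal luminescence so fewer parasites; stock transfer was 50 nL into about 50 µL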
# AF4-AF9 inh: inhibitors of AF4 peptide binding to AF9, primary screen, biochemical, AlphaScreen, biotin-AF4 peptide, FLAG-AF9, single point. inhibition, % at 10 µM. 350,000 compounds, 0.47% hits. AID 651704, 2012;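 active means every replicate reaching a set inhibition limit, whatever the replicate mean, cut at about 25% in these data; inconclusive means mean inhibition reaches that limit but some replicates miss it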;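 further: 0% = plate neutral control median and 100% = total signal loss; the record names both 10 and 1 µM as test concentration; the first replicate is given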
# Target sequence (P42568 whole entry, looked up): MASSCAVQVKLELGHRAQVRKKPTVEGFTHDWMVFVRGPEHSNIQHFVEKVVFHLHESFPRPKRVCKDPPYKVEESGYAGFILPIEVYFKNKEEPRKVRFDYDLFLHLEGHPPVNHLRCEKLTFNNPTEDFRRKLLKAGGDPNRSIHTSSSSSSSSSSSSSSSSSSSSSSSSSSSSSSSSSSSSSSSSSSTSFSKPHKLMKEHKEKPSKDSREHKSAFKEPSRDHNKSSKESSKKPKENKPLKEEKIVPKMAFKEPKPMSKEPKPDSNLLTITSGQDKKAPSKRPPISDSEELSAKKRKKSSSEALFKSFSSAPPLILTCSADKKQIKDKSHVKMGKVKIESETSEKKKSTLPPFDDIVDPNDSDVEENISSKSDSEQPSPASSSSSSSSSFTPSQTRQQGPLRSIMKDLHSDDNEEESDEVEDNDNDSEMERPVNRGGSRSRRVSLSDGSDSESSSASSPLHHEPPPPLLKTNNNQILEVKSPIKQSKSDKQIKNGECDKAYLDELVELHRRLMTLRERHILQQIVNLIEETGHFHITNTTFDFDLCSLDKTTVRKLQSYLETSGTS
# Calb FLC: C. albicans growth inhibition with fluconazole, primary screen, CaCi-2 strain, Alamar Blue fluorescence. C. albicans CaCi-2 (fluconazole-resistant clinical isolate) + fluconazole, 48 h. growth inhibition, % (concentration not given with the values). 300,000 compounds, 0.57% hits. AID 1979, 2009;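 active means most replicates above 75%; inconclusive means exactly half above 75%; inactive means most below 75%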;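 further: all wells also contain fluconazole at 8 µg/ml as a sub-toxic cotreatment; 0% = median of DMSO wells and 100% = median of geldanamycin control wells; wells of about 8 µL received 7.5 nL stock; the first replicate is given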
# Vif A3G: inhibitors of Vif binding to APOBEC3G peptide, primary screen, biochemical, TR-FRET, GST-Vif 1-94, biotin-A3G peptide, dose response retest (AID 1117319) | 260,000 compounds, 0.57% hits | one-dose inhibition, %; IC50 in µM for titrated hits | Virion infectivity factor (Human immunodeficiency virus type 1 group M subtype B (isolate … | TR-FRET GST-Vif / biotin-A3G peptide binding; higher % means a stronger effect; test concentration not given here; strong numbers were not always called active;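 active means above the screen mean plus three standard deviations and confirmed in dose response; inconclusive means results disagree or hit not tested in dose response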;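 further: Vif residues 1-94 fused to GST binding biotinylated APOBEC3G peptide 110-148; 0% = full assay without inhibitor and 100% = GST in place of GST-Vif; retest series ran down from 100 µM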
# Ecoli rRNA inh: reduced GFP signal of wild-type E. coli, primary screen, bacterial rRNA inhibitor project, GFP/RFP fluorescence, OD600, single point. 350,000 compounds, 1.6% hits. E. coli WT GFP vs humanized-ribosome RFP mutants, 24 h; active compounds read low; DMSO median 0, no signal -100. GFP signal change (wild-type ribosome), % (no concentration beside the values);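 active means significant combined selectivity score with lowered wild-type GFP, culture density cut under 30%, mutant RFP and density less affected; inactive means any of these conditions unmet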; further: one replicate is shown; some compounds called inactive have numbers as strong as hits
# A1 inh: caspase 3/7 activation in MEF A1-2A-BIM cells, primary screen, A1 inhibitor project, cell-based, luminescence, HTS; Caspase-Glo 3/7 luminescence, 3 h; percent of clofoctol response, vehicle zero; caspase activation, % (test concentration not listed); 330,000 compounds, 0.066% hits; AID 2462, 2010;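 active means over half of replicate activation scores above 10%, or exactly half above 10 with the replicate mean above 10; inconclusive means replicate mean below 10 yet half the replicates above 10; inactive means over half of replicates below 10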;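 further: wells of about 30 µL received 50 nL stock; many hits fall short of the cut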
# Beta apoptosis: inhibitors of cytokine-induced beta cell apoptosis, primary screen, luminescence; INS-1E cytokine-induced death, ATP luminescence, 48 h; percent of positive-control rescue, neutral wells zero; protection from apoptosis, % (test concentration not listed); 300,000 compounds, 0.8% hits;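 active means all replicates at 75% or more, or half of them and the mean; inconclusive means half reach 75% but not the mean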;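 further: 0% = cytokine-treated negative control wells and 100% = positive control rescue; higher means more ATP so stronger rescue from cytokine killing; wells of about 40 µL received 100 nL stock; the first replicate is given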
# Ecoli rRNA inh OD600: further read-out of Ecoli rRNA inh, marked with its call; OD600 change, %; measured here: OD600 growth;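 optical density of the mix in the first replicate; 0 = DMSO median and -100 = no signal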
# Ecoli rRNA inh RFP: also measured in Ecoli rRNA inh; calls as there; RFP signal change, %; measured here: RFP humanized mutant strains;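 first replicate; 0 = DMSO median and -100 = no signal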
# * marks the source's active call; other numbers are inactive results; ? = inconclusive; nt = not tested or not shown; & = joins results of further samples.
SMILES,RanGTP-Impb inh,T cruzi inh,AF4-AF9 inh,Calb FLC,Vif A3G,Ecoli rRNA inh,Ecoli rRNA inh OD600,Ecoli rRNA inh RFP,A1 inh,Beta apoptosis
O=c1c2cc(Cl)ccc2oc2nc3n(c(=O)c12)CCCS3,0.7,-6,nt,12,1%,nt,nt,nt,0.9,0
O=C(CN1C(=O)NC(Cc2ccccc2)C1=O)Nc1ccc(F)c(Cl)c1 (stereo unspecified),nt,nt,0.5,nt,-5%,-28*,-9.6*,3.8*,1.6,-8
CCC(Oc1ccccc1OC)C(=O)Nc1ccc2c(c1)n(C)c(=O)n2C (stereo unspecified),-2.3,-14,2.0,3,nt,-7,-7,4.2,0.4,-3
CCCc1nc(N2CCOCC2)c(C#N)c2c1CCCC2,0.3,11,nt,-2,-5%,nt,nt,nt,0.4,-9
CC1CCN(c2ncnc3c2cnn3-c2ccccc2)CC1,2.9,15,-4.4,-13,-2%,-37,-50,-14,-2.6,nt
O=C(c1ccccc1)N1CCN(CC(O)COC2CCCCC2)CC1 (stereo unspecified),-1.4,-19,nt,-14,20%,nt,nt,nt,1.0,4
COc1ccc(N2CCN(C(=O)CCS(=O)(=O)c3ccc(OC)cc3)CC2)cc1,-7.5,0,0.9,8,1%,nt,nt,nt,0.4,-13
CCOCCCn1c(=S)[nH]c2cc(C(=O)NCCN(CC)CC)ccc2c1=O,5.2,7,nt,5,26%,-2,5,3.3,1.1,-3
CCn1c(O)c(N=NC(=O)CNc2cccc(C)c2)c2ccccc21,23,2,1.9,?,8%,-11,-10,-1.2,0.9,3
CC(C)(C)c1cc(Cl)c(O)c(NC(=S)NC(=O)c2cccnc2)c1,1.7,70*,0.3,49,?,-39,-68,-5.3,0.8,24
CSc1nc(C)c(Oc2ccccc2)c(=O)n1C,3.8,11,nt,0,1%,nt,nt,nt,-0.7,-4
CCOC(=O)O[C@]1(C(=O)OCCl)CC[C@H]2[C@@H]3CCC4=CC(=O)C=C[C@]4(C)[C@H]3[C@@H](O)C[C@@]21C,2.2,16,nt,nt,nt,nt,nt,nt,0.1,-6
COc1cc(C(=O)Nc2nc3ccccc3[nH]2)ccc1OC(F)F,4.4,8,-1.0,8,-13%,-58,-77,-26,-2.9,29
Cc1ccc(C(=O)N(CCN(C)C)CC2CCCN(Cc3ccccc3F)C2)cc1C (stereo unspecified),2.8,18,6.4,0,nt,22,15,5.1,0.0,-5
COc1ccc(OC)c(NC(=O)C2CCCN(S(=O)(=O)c3cccc4cccnc34)C2)c1 (stereo unspecified),?,1,2.6,4,0%,-5,-15,-2.2,0.2,-2
COc1ccccc1CC(=O)Nc1cc2oc3ccccc3c2cc1OC,3.3,37,nt,12,1%,nt,nt,nt,-0.2,33
O=C(Nc1n[nH]c(=S)s1)c1ccc2ccccc2c1,7.0,11,1.0,3,-2%,6,14,-2.4,-1.9,-2
CNC(=O)N1c2ccccc2NC(=O)CC1C (stereo unspecified),2.2,-8,1.0,14,2%,7,4,1.5,1.2,0
COC(=O)c1cn(NC(=O)CC2CCCCC2)c(=O)c2ccccc12,-3.6,0,nt,-5,-7%,nt,nt,nt,0.5,2
N#C/C(C(=O)NCc1ccco1)=C1/SC(Cc2ccc(Cl)cc2)C(=O)N1c1ccccc1 (stereo unspecified),2.8,nt,nt,-3,?,nt,nt,nt,1.0,-10
CCOC(=O)c1sc(=NC(=O)c2cccs2)n(C)c1C,5.8,6,-3.4,6,-72%,10,2,-2.2,-7.0,1
CS(=O)(=O)c1ccc(C(=O)NC2CCCCC2)cc1,1.6,-19,nt,-2,nt,nt,nt,nt,0.3,-7
O=C(Nc1ccncc1)c1ccc(Cl)c(S(=O)(=O)N2CCCCC2)c1,-2.9,51,6.3,-6,7%,1,-1,1.0,0.5,2
N#C/C(=C\c1cn(-c2ccccc2)nc1-c1cccnc1)c1nnc2n1CCCCC2,2.6,0,nt,21,-7%,nt,nt,nt,0.5,-3
Cc1cc(C)n2nc(NCc3cccc(Br)c3)nc2n1,-1.9,-19,nt,6,5%,nt,nt,nt,-0.5,5
Cn1ccs/c1=N\C(=O)Nc1cccc(C(F)(F)F)c1,-0.9,-6,-1.3,-1,2%,-5,-4,-2.2,0.1,2
CCN1CCN(C(=O)C2COc3ccccc3O2)CC1 (stereo unspecified),0.2,-6,-2.4,-1,71%,16,10,1.4,0.4,-16
NNC(=O)CNc1cccc(Cl)c1,0.9,10,1.1,-4,-1%,-4,-9,3.6,-0.9,-1
COc1ccc2ccccc2c1CNCCN1CCOCC1,-4.3,4,3.0,-34,nt,5,3,1.0,1.1,2
COc1ccccc1NC(=O)C(C)OC(=O)CCCc1c[nH]c2ccccc12 (stereo unspecified),6.9,5,2.1,nt,5%,-23,-49,-1.4,-0.5,-1

# Five compounds already listed, ordered by the value under Ecoli rRNA inh OD600, low to high.
Structure,RanGTP-Impb inh,AF4-AF9 inh,Vif A3G,Ecoli rRNA inh,Ecoli rRNA inh OD600,Ecoli rRNA inh RFP,A1 inh
CC(C)(C)c1cc(Cl)c(O)c(NC(=S)NC(=O)c2cccnc2)c1,1.7,0.3,?,-39,-68,-5.3,0.8
CCn1c(O)c(N=NC(=O)CNc2cccc(C)c2)c2ccccc21,23,1.9,8%,-11,-10,-1.2,0.9
CCC(Oc1ccccc1OC)C(=O)Nc1ccc2c(c1)n(C)c(=O)n2C (stereo unspecified),-2.3,2.0,nt,-7,-7,4.2,0.4
CCN1CCN(C(=O)C2COc3ccccc3O2)CC1 (stereo unspecified),0.2,-2.4,71%,16,10,1.4,0.4
Cc1ccc(C(=O)N(CCN(C)C)CC2CCCN(Cc3ccccc3F)C2)cc1C (stereo unspecified),2.8,6.4,nt,22,15,5.1,0.0

# Three entries out of the list, arranged by length of the SMILES, low to high:
SMILES,RanGTP-Impb inh,T cruzi inh,AF4-AF9 inh,Calb FLC,Vif A3G,Ecoli rRNA inh,Ecoli rRNA inh OD600,Ecoli rRNA inh RFP,A1 inh,Beta apoptosis
Cc1cc(C)n2nc(NCc3cccc(Br)c3)nc2n1,-1.9,-19,nt,6,5%,nt,nt,nt,-0.5,5
CCOC(=O)c1sc(=NC(=O)c2cccs2)n(C)c1C,5.8,6,-3.4,6,-72%,10,2,-2.2,-7.0,1
O=C(Nc1ccncc1)c1ccc(Cl)c(S(=O)(=O)N2CCCCC2)c1,-2.9,51,6.3,-6,7%,1,-1,1.0,0.5,2

# (continued)
SMILES,RanGTP-Impb inh,T cruzi inh,AF4-AF9 inh,Calb FLC,Vif A3G,Ecoli rRNA inh,Ecoli rRNA inh OD600,Ecoli rRNA inh RFP,A1 inh,Beta apoptosis
O=C(NC(Cc1ccccc1)C(=O)O)/C(=C\c1ccc(Cl)cc1)NC(=O)c1ccccc1 (stereo unspecified),-0.2,2,0.0,-4,4%,-3,-4,-2.1,0.6,4
CCNc1oc(-c2ccc(OC)cc2)nc1S(=O)(=O)c1ccc(Br)cc1,?,-2,nt,-7,-1%,nt,nt,nt,0.7,2
Cc1cc(C)c(S(=O)(=O)NC(CC(=O)O)c2cccc([N+](=O)[O-])c2)c(C)c1 (stereo unspecified),0.1,-12,0.0,-13,-2%,9,6,0.5,1.2,-5
Cc1noc(C)c1COc1ccccc1C(=O)NNC(=O)C(C)Oc1ccccc1F (stereo unspecified),1.4,6,-0.4,10,-13%,6,3,5.0,1.1,-3
Cc1nnc(CN(C)C(=O)c2cc(COc3ccc(C)c(C)c3)on2)o1,2.2,-7,-24,-46,nt,3,1,-0.1,-0.6,4
CC(=O)c1c(C)[nH]c(C(=O)NC(C)c2ccccc2)c1C (stereo unspecified),-0.6,-10,2.1,-2,nt,-6,-1,5.6,0.3,-1
COC(=O)c1ccc(COC(=O)CNC(=O)c2ccc(OC)cc2)cc1,nt,nt,-1.8,nt,nt,0,2,0.1,1.8,-8
CCOC(=O)c1ccccc1NC(=O)N1CCn2c(C)ccc2C1CC (stereo unspecified),-4.8,14,nt,-2,32%,nt,nt,nt,0.1,-2
CC(O)(C#CCN1CCCCCC1)c1ccccc1 (stereo unspecified),-1.8,5,-5.5,-14,2%,14,18,-0.3,-0.7,0
C[n+]1ccn(CC(=O)c2ccc(Br)cc2)c1,0.4,0,nt,-10,8%,nt,nt,nt,-1.2,-3
COc1ccc(C2c3c(ccc4ccccc34)Oc3ncn4nc(Cc5ccccc5)nc4c32)cc1OC (stereo unspecified),0.7,4,nt,5,nt,nt,nt,nt,-1.9,-17
Cc1ccc(S(=O)(=O)N2CCN(C(=O)CCOc3cc(C)ccc3C)CC2)cc1,nt,nt,1.0,nt,1%,-30,-43,-10,1.8,-6
O=C1CN(C(=O)c2ccc(Br)o2)C(c2ccc(F)cc2)c2cc(F)ccc2N1 (stereo unspecified),0.8,8,nt,-12,0%,nt,nt,nt,0.2,-12
CC(C)NC(=O)NC(=O)COC(=O)CCCSc1nc2ccccc2s1,-4.4,1,-2.5,?,-1%,4,6,-2.4,-1.1,4
CCc1cccc(NC(=O)c2cc(OC)c(OC)c(OC)c2)c1,-0.5,-2,-0.5,-2,6%,4,5,0.9,1.7,0
O=c1[nH]c(/C=C/c2ccc([N+](=O)[O-])cc2)c([N+](=O)[O-])c(=O)[nH]1,?,-3,-2.0,-4,nt,4,6,0.5,0.2,2
COc1ccc(-n2c(NC(=O)c3ccc(Br)o3)c(C#N)c3nc4ccccc4nc32)cc1,155*,-4,nt,3,9%,nt,nt,nt,nt,nt
COC(=O)N/N=C(\C)c1cccc(C(F)(F)F)c1,-0.4,-11,-20,6,-5%,4,8,0.4,-1.8,2
CC1CC(=O)c2cnc(N)nc2C1 (stereo unspecified),-1.5,-32,nt,1,-12%,21,20,0.6,-0.5,nt
CCO[C@H]1OC(C(=O)NC2CC2)=C[C@@H](c2coc3ccccc3c2=O)[C@@H]1CCCO,-3.2,-5,-2.9&-5.8,2,29%,2,16,-3.2,-0.6,-2
O=C(Nc1ccc(Oc2ccc(Cl)cc2)cc1)c1ncn[nH]1,4.2,-20,nt,-20,29%,nt,nt,nt,0.1,-8
CC(C)c1onc(C(=O)N2CCN(c3ccccc3)CC2)c1[N+](=O)[O-],-0.3,?,-0.1,1,32%,5,4,-2.1,1.6,-10
CC1CCCCN1CCNC(=O)CN1C(=O)COc2ccccc21 (stereo unspecified),2.2,-29,nt,-3,-2%,nt,nt,nt,0.1,-12
Cc1cc(OCCn2nc(C(=O)O)c3ccccc3c2=O)ccc1C(C)C,1.4,-2,-0.5,-4,nt,7,10,-1.3,nt,nt

# Source: PubChem (several laboratories)

# Only part of the results is shown. The share of hits here may be higher or lower than overall.
